Six1-Eya2 blk: qHTS Assay for Inhibitors of the Six1/Eya2 Interaction; Homeobox protein SIX1 (Homo sapiens) + Protein phosphatase EYA2 (Homo sapiens), …; hit rate 0.56% among 360,000; AlphaScreen GST-Six1/His-Eya2 binding, biochemical; hits give low values; control for the full effect not named in the record; activity change, % (no concentration beside the values); in the data active = activity change below about -65%; inconclusive = about -30% to -65%; inactive = above about -30%; also: % is scaled to controls: 0 for no effect and ±100 for the full control effect; compound concentration not given in the record
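Homogeneous AlphaScreen proximity assay pairing GST-Six1 with His-tagged Eya2 (added as 5X mix: 250 nM and 500 nM) in 50 mM Tris pH 8.0, 300 mM NaCl, 1 mM TCEP. Glutathione donor and nickel acceptor beads; 1 h, 37 °C, dark.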
TRPML1 blocker: qHTS for Inhibitors of the Human Mucolipin Transient Receptor Potential 1 (TRPML1); hit rate 0.02% among 390,000; TRPML1-inducible cells, Ca2+ dye fluorescence, FDSS; hits give low values; inhibition of EC80 agonist-evoked calcium signal; AID 624415, 2012; Mucolipin-1 (Homo sapiens), Q9GZU1; activity change, negative = inhibition, % (no concentration beside the values); in the data active means activity change below about -50%; inconclusive means about -30% to -50%; inactive means above about -30%;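 also: stimulus is agonist 54-4 at its EC80 concentration; % is scaled to controls: 0 for no effect and ±100 for the full control effect; compound concentration not given in the record; the text of the record puts the active cut at -80%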
Target sequence (Q9GZU1 whole entry, looked up): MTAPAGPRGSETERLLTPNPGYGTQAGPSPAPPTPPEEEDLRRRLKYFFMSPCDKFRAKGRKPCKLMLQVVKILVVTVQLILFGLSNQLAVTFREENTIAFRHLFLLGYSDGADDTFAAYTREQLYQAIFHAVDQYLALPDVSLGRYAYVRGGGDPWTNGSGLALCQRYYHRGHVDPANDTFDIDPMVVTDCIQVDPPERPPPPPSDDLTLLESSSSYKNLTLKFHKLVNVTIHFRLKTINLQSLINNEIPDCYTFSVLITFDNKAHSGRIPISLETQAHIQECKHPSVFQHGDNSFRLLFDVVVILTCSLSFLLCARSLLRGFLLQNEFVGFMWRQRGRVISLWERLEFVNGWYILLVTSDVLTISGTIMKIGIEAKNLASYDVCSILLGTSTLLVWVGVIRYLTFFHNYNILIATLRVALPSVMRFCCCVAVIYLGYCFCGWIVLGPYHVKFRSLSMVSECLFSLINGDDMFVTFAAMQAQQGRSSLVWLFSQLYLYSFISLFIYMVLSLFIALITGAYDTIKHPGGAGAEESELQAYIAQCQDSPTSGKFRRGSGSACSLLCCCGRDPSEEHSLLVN
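Tet-induced TRPML1-DL cells loaded with Ca8 no-wash calcium dye were read kinetically on FDSS. Compound addition was followed by EC80 agonist 54-4 (4 uM final); inhibition was read over 110 s.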
D2 ag: Beta-Arrestin HTS for Positive Allosteric Modulators of the Human D2 Dopamine Receptor: Agonists; AID 624465, 2012; DiscoveRx PathHunter D2 beta-arrestin, luminescence, 90 min; 100% = 57 uM dopamine signal; D(2) dopamine receptor (Homo sapiens), P14416; activation, % (test concentration not listed); hit rate 0.084% among 360,000; in the data active = activation above about 40%; inconclusive = about 15% to 40%; inactive = below about 15%; also: compound concentration not given in the record; the text of the record calls up to 30% inactive
Target sequence (P14416 whole entry, looked up): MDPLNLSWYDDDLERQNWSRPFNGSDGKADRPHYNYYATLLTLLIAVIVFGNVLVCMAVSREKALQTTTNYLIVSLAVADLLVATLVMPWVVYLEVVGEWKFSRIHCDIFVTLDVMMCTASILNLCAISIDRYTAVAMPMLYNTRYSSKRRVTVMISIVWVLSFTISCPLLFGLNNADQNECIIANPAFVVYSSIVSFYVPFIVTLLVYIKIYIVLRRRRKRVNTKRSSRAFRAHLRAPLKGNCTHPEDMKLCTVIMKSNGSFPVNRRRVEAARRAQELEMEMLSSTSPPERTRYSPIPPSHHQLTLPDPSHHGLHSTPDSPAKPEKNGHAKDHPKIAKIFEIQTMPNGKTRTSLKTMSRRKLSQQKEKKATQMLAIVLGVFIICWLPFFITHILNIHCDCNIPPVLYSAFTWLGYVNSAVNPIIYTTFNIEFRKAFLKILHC
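DiscoveRx PathHunter D2 beta-arrestin cells (2,100/well) attached overnight, then compound-stimulated 90 min at 37 C in HBSS/10 mM HEPES/0.1% Tween-20 buffer; beta-galactosidase complementation read by luminescence after 1 h at ambient temperature. Dopamine 57 uM final (EC100) as control.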
TRPML1 ag: qHTS for Agonists of the Human Mucolipin Transient Receptor Potential 1 (TRPML1); activation, % (no concentration beside the values); hit rate 0.12% among 410,000; TRPML1-expressing cells, Ca2+ dye fluorescence, FDSS; host cell line not named in the record; reference of the full effect not given here; AID 624414, 2012; in the data active = activation above about 50%; inconclusive = about 30% to 50%; inactive = below about 30%; also: 0% is about no effect; the text of the record puts the active cut at 80%
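Tet-induced TRPML1-DL cells, 1,500 per well, cultured overnight, were loaded with a no-wash Ca2+ dye for 45–90 min. Calcium fluorescence was recorded on the FDSS for 110 s after compound addition, before the EC80 agonist (4 uM 54-4) was added.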
D2 PAM: Beta-Arrestin HTS for Positive Allosteric Modulators of the Human D2 Dopamine Receptor: Potentiators; DiscoveRx D2 beta-arrestin cells, luminescence, 90 min; 100% = 57 uM dopamine signal; potentiation, % (no concentration beside the values); hit rate 0.23% among 360,000; active = potentiation of 50% or more; inconclusive = 30% to 50%; inactive = 30% or less;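 also: compound concentration not given in the record; tested on top of an EC20 dose of dopamine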
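D2 cells co-treated with compound plus 50 nM dopamine (EC20) for 90 min at 37 deg C to detect potentiation. Beta-arrestin recruitment was read as enzyme-fragment luminescence after 1 h at ambient temperature. Full response was set by 57 uM dopamine.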
PINK1 modulator: A Quantitative High throughput Screen to Identify Chemical Modulators of PINK1 Expression; Potency, µM (series often up to 76.6 µM), for the others: top-dose activation (PINK1 increase), hits mostly activators; PINK1 immunofluorescence, high-content cytometry, 24 h; hit rate 0.2% among 410,000; AID 624263, 2012; active = well fitted activation curve with a large enough effect; inconclusive = small, poorly fitted or top-dose-only effect; inactive = flat fitted curve, though single readings scatter; cell line not stated here;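 also: potency is read from the fitted curve at half-maximal effect; % of control where 0% means no effect; nearly all actives have a fitted effect of over 65% in size; a mitochondrial uncoupler was the plate control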
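Stable cell line, 250 cells/well, 12 h attachment; compounds pinned at 5 concentrations, 24 h; CCCP control. Fixed with nuclear dye, primary antibodies 12 h at 10 degrees C, secondary plus cell stain; laser-scanning cytometer read.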
* marks the source's active call; other numbers are inactive results; ? = inconclusive; · = not tested or not shown; & = joins results of further samples; [ ] = another dose, or the depositor's remark. Outcome played no part in choosing rows. Share with any hit: about 1%.

Screens in order – D2 PAM, TRPML1 blocker, D2 ag, PINK1 modulator, Six1-Eya2 blk, TRPML1 ag
- C=CCn1nc(-c2ccccc2)c(N2CCCCC2)cc1=O
→ 0, 26, 1.8, 2.3%, 7, 0.4
- O=C(/C=C/c1ccnc2ccccc12)c1cccs1
→ -4, -15, -0.1, -0.6%, -8, 0.7
- O=C(NC(=S)Nc1cccc(NC(=O)c2ccccc2Cl)c1)c1cccs1
→ -23, -6, -5.0, 12%, -13, 0.4
- CC(=O)c1cccc(NC(=O)NC2CC(=O)N(c3ccc4c(c3)OCCO4)C2)c1 (stereo unspecified)
→ 0, 15, -1.3, -0.8%, -8, 0.4
- CCOC(=O)c1c(CSc2ccccc2)n(C)c2cc(Br)c(OC)c(O)c12
→ -1, -27, -1.9, 4.0%, -7, 0.9
- O=C(Nc1cc(S(=O)(=O)N2CCOCC2)ccc1N1CCOCC1)c1cc2c(s1)CCC2
→ -4, -13, 8.9, 0.1%, -2, 0.7
- Cc1ccc(N2CCN(C(=O)c3cc(S(=O)(=O)N4CCCCC4)c[nH]3)CC2)c(C)c1
→ ·, -2, ·, -0.8%, ·, 3.3
- c1cncc(Nc2nc(-c3cccs3)cs2)c1
→ -8, 7, -2.0, ?, -13, 0.2
- CCCn1c(SCC(=O)c2ccc(CC)cc2)n[nH]c1=O
→ 23, 14, -1.5, -0.5%, 1, 0.4
- O=C(NCCN1CCOCC1)C1CCN(S(=O)(=O)N2CCCCC2)CC1
→ -2, -5, 1.5, -0.5%[38.3 µM], 6, 1.1
- CCCn1c(=O)[nH]c(=O)c2c1nc(-c1ccc(C(F)(F)F)cc1)n2CCOC
→ -11, 12, -5.3, 7.5%, 16, 0.0
- CCCn1c(=S)[nH]c2ccc(C(F)(F)F)cc21
→ -5, 30, 0.0, 0.6%, 12, 0.5
- c1ccc(CCN2CN(CCCN3CCOCC3)c3nc4ccccc4n3C2)cc1
→ -4, 19, 0.3, -5.5%, -5, -0.8
- O=C(Nc1cccc(S(=O)(=O)N2CCCC2)c1)c1ccncc1
→ -1, 17, -1.4, 0.1%, -1, 0.2
- CN1CCN(c2cc(C(F)(F)F)nc3ccc(F)cc23)CC1
→ -12, 3, -4.5, -1.3%, -7, 0.6
- O=C(Nc1nccs1)Oc1ccccc1
→ -5, 1, -3.8, 0.1%, -2, -0.5
- CCOC(=O)c1c(NC(=O)/C=C/C(=O)O)sc(C)c1-c1ccc(F)cc1
→ -10, -1, -5.4, -2.7%, -19, -0.8
- Cc1ccccc1Sc1ncccc1[N+](=O)[O-]
→ -2, 9, -1.8, 1.1%, ?, 0.7
- COc1ccc(CCNC(=O)C2CCN(C(=O)c3ccc(C(C)(C)C)cc3)CC2)cc1
→ -1, 1, -4.1, 0.1%, -1, 0.6
- CCCCc1ccc(NC(=O)N2CCNC(=O)C2CC(=O)Nc2ccsc2C(=O)OC)cc1 (stereo unspecified)
→ -7, 1, -0.8, 0.8%, 2, -0.3
- COCCSc1ccccc1C(=O)Nc1cc(C)on1
→ -10, -4, -0.8, 0.2%[38.3 µM], 5, -0.4
- CC(C)=CCCC(C)CN1CCC(n2nccc2NC(=O)c2ccc3c(c2)OCO3)CC1 (stereo unspecified)
→ -48, -6, -0.6, 1.8%, -1, -0.8
- Cc1cc(C)n(C(C)CC(=O)NCc2ccccc2C)n1 (stereo unspecified)
→ ·, 9, ·, -1.3%, ·, 1.3
- O=C1NC(Cc2c[nH]c3ccccc23)C(=O)N1Cc1ccccc1 (stereo unspecified)
→ -7, 25, 2.2, 0.9%, 7, 0.0
- COc1ccc(NC(=O)c2ccco2)c(NC(=O)Cc2cccs2)c1
→ -6, -7, -4.7, 1.3%, 8, 0.5
- COc1cc2c(=O)n(Cc3ccccc3Cl)c(=O)n(CC(=O)Nc3ccccc3)c2cc1OC
→ ·, 3, ·, 5.4%, ·, 0.2
- CCC(=NCCc1c(C)[nH]c2ccc(OC(F)(F)F)cc12)C1=C(O)CC(c2ccccc2)CC1=O (stereo unspecified)
→ -16, 43, 7.8, 1.2%, -20, -0.9
- CCn1c(=O)cc(OCC(=O)N2CCN(c3cccc(Cl)c3)CC2)c2ccccc21
→ ·, -18, ·, 0.5%, ·, -0.1
- CCCCNC(=O)/C(=C/c1ccco1)NC(=O)c1ccco1
→ 12, -6, 2.9, 1.5%, 10, -0.4
- COC(=O)COc1c(Cl)cc(C(c2c(C)[nH][nH]c2=O)c2c(C)[nH][nH]c2=O)cc1OC
→ -4, 4, -1.3, 0.5%, 5, -0.1
- O=C1C(=O)N(CCN2CCOCC2)C(c2ccccn2)/C1=C(/O)c1ccc(Cl)cc1 (stereo unspecified)
→ -1, -12, -1.2, 0.0%, -10, 0.4
- Cc1cccc(Cn2c(-c3cccc(Br)c3)nc3ccccc32)c1
→ ·, 33, ·, 2.6%, ·, 3.3
- Oc1oc(-c2ccc(Br)cc2)nc1C=Nc1ccc(Br)cn1
→ -2, 56, -4.5, 4.2%, -5, 0.4
- CC(=O)C1CCC2C3CC(C)=C4CC(O)CCC4(C)C3CCC12C (stereo unspecified)
→ -13, -8, -5.9, 4.0%, -13, 0.4
- CC(C)c1ccccc1NC(=O)C1CC(=O)N(C2CCCC2)C1 (stereo unspecified)
→ -14, 31, -2.1, 1.5%, -3, 0.3
- CCN(Cc1ccccc1)Cc1c(F)cccc1F
→ -21, -2, -1.3, -5.3%[38.3 µM], 14, -0.4
- Cn1c(C(=O)O)cnc1Sc1ncc(C(F)(F)F)cc1Cl
→ -3, -18, -3.1, 2.6%, 2, 0.3
- O=C(NNc1nc2c(F)cccc2s1)C1COc2ccccc2O1 (stereo unspecified)
→ -7, 5, 0.8, 0.4%, -1, 0.7
- O=C(CC1CCCC1)NNC(=O)c1ccccc1O
→ -1, -1, -2.4, 2.7%, -4, -0.9
- O=C(COC(=O)/C=C/c1ccc2ccccc2n1)NNC(=O)c1ccc([N+](=O)[O-])cc1
→ 21, -5, 1.3, 3.3%, -1, -1.0
- COc1cc(OC)c(S(=O)(=O)Nc2ccccc2NC(=O)CN2CCOCC2)cc1NC(C)=O
→ -3, -5, -5.7, 4.0%, 1, 0.1
- CCCCNC(=O)CN(Cc1ccco1)S(=O)(=O)c1ccc(C(C)=O)cc1
→ -1, 4, -0.8, 1.2%, -3, 0.6
- CCc1cccc(NC(=O)CN2C=NS(=O)(=O)c3ccccc32)c1
→ ·, 0, ·, 2.5%, ·, -0.5
- Cc1cc(C)n(CC(=O)N2CCCC(N3CCN(c4ccccc4C)CC3)C2)n1 (stereo unspecified)
→ 19, 10, 2.7, -3.4%, 10, 0.1
- Cc1ccccc1Nc1ncnc2c1c(-c1ccccc1)cn2-c1ccc(F)cc1
→ ·, 6, ·, 5.1%, ·, 0.1
- CCOc1ccc(S(=O)(=O)NCC(c2cccs2)S(=O)(=O)c2ccc(C)cc2)cc1 (stereo unspecified)
→ ·, -21, ·, 0.2%, ·, 2.1
- CC1=C(C(=O)Nc2cc(C(=O)N(C)Cc3ccccc3)ccc2C)SCCO1
→ -12, 10, 1.2, -1.7%, -2, 0.4
- O=C(CSc1nnc(-c2cccs2)n1-c1ccccc1)c1ccc2c(c1)OCCO2
→ 8, -8, -4.0, 18%, -7, 1.2
- COc1cccc(NC(=O)C2CC(=O)N/C(=N/NC(=O)c3ccc(C)cc3)S2)c1 (stereo unspecified)
→ -7, 11, -5.1, -0.9%, -9, -0.5
- Brc1ccc(OCCCCN2CCCCC2)cc1
→ -59, -17, -0.9, -1.3%, 4, -0.9
- CSc1ncc(Cl)c(C(=O)N(Cc2ccc(C)cc2)C2CCS(=O)(=O)C2)n1 (stereo unspecified)
→ ·, -21, ·, 0.1%, ·, -0.2
- Cc1c(-n2c(=S)[nH]c3ccccc3c2=O)c(=O)n(-c2ccccc2)n1C
→ -17, -17, 0.4, ·, -2, -0.2
- Cc1cccc(NC(=O)CSCC(=O)Nc2ccccc2N2CCCCC2)c1
→ -6, 1, -0.6, ?, -2, 2.2
- COc1ccc(C(=O)CN2C(=O)c3ccccc3C2=O)c(OC)c1
→ -2, 53, 2.6, -0.7%, 1, 0.3
- O=C(NC1=NCCS1)c1ccncc1
→ -17, 10, -0.1, 0.5%, 3, 1.2
- Cc1cc(-n2c(SCC(=O)Nc3ccc(Br)cc3)nc3n[nH]c(C)c3c2=N)ccc1Cl
→ -5, 9, -0.3, 0.0%, 1, -0.3
- CCOc1ccc(-c2c(C)n([O-])c3c([n+]2=O)CCCCC3)cc1
→ 7, 5, -0.1, 2.2%, 21, 0.3
- COc1ccc(C(=O)N/C(=C\c2cc(OC)c(OC)cc2[N+](=O)[O-])C(=O)NCC(=O)O)cc1
→ -5, -18, -5.1, 6.0%, 4, -0.8
- Cc1cc(Cl)ccc1OCc1nc(-c2ccncc2)no1
→ 4, 0, 1.2, -0.8%, 25, 0.3
- COC(=O)c1oc2ccc(Cl)cc2c1NC(C)=O
→ -4, 6, -2.2, 1.2%, 4, 0.2

Later entries.
Screens in order – D2 PAM, TRPML1 blocker, D2 ag, PINK1 modulator, Six1-Eya2 blk, TRPML1 ag
- O=C(Nc1ncc([N+](=O)[O-])s1)c1ccc2c(c1)OCO2
→ -16, 27, -4.7, ?, -16, 0.5
- CCCN(CCC)C(=O)Nc1ccc(F)cc1F
→ 3, 77, -4.3, 0.3%, 0, -0.3
- CCc1cc2cc(C)cc(C)c2nc1SCC(=O)Nc1cc(C)on1
→ -3, 10, -2.5, ?, 4, 0.9
- COc1cccc(NC(=O)CCN2CCN(CCO)CC2)c1
→ ·, -17, ·, 0.4%, ·, -0.1
- O=C1[C@H](Cc2ccccc2)NCCCC[C@@H](c2ccc(Cl)cc2)N1Cc1ccc(Cl)cc1
→ -5, 61, -0.3, -1.3%, 6, 1.5&-0.5

High-throughput results (PubChem BioAssay)
